Screening data from PubChem.
LASV entry inh – inhibitors of Lassa virus binding or cell entry; Lassa virus pseudotype entry inhibition, cell reporter; control for the full effect not named in the record; Potency, µM (doses to about 37.9 µM), inactives show top-dose activity change, negative = inhibition, most hits filed as inhibitors; 300,000 tested, 1.2% active; AID 540256; active means well fitted inhibition curve with a large enough effect; inconclusive means small, poorly fitted or top-dose-only effect, or effect the other way; inactive means flat fitted curve, though single readings scatter; tested in HEK293 cells; also: % is scaled to controls: 0 for no effect and ±100 for the full control effect; nearly all actives have a fitted effect of over 50% in size; luciferase read-out
NS1 inh – blocks influenza NS1 protein function; S. cerevisiae slowed by influenza A NS1, growth recovery by OD600; Potency, µM (top dose mostly 46.1 µM), inactives show top-dose activity, positive = more growth; 270,000 tested, 0.4% active; AID 2326; active means well fitted rising curve with a large enough effect; inconclusive means small, poorly fitted or top-dose-only effect; inactive means no such curve, though single readings can be large or run the other way; also: nearly all actives have a fitted effect of over 50% in size
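In this qHTS, NS1 from influenza A is expressed in budding yeast, where it slows growth. Cells are switched from glucose to 2% galactose medium (pH 6.0, -URA), treated with compound, and growth recovery is read at OD600.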
RE007 growth inh – less growth of the S. pombe RE007 Vpr strain; S. pombe RE007 Vpr strain, BacTiter-Glo ATP luminescence, 24 h; control for the full effect not named in the record; Potency, µM (doses to about 92.2 µM), inactives show at the highest dose activity change, negative = less growth; 360,000 tested, 0.21% active; AID 651644; active = well fitted falling curve with a large enough effect; inconclusive = small, poorly fitted or top-dose-only effect; inactive = no such curve, though single readings can be large or run the other way;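 also: % is scaled to controls: 0 for no effect and ±100 for the full control effect; nearly all actives have a fitted effect of over 50% in size; the assay follows cell death caused by Vpr and the record does not say whether a fall means rescue or toxicity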
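Fission yeast strain RE007, carrying one chromosomally integrated HIV-1 vpr copy, was seeded at OD 0.01 in PMG+AL medium with 23 nL pinned compound. After 24 h at 30 °C and 99% humidity, viability was read by BacTiter-Glo luminescence.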
StopGo reporter – lowers the luciferase signal of an FMDV 2A StopGo reporter | human cells with a luciferase reporter of 2A StopGo recoding; control for the full effect not named in the record | AID 1159524 | 410,000 tested, 1.2% active | Potency, µM (highest dose often 57.9 µM), inactives show at the top dose signal change, negative = less light; active = well fitted falling curve with a large enough effect; inconclusive = small, poorly fitted or top-dose-only effect; inactive = no such curve, though single readings can be large or run the other way; tested in HEK293T cells; also: % is scaled to controls: 0 for no effect and ±100 for the full control effect; nearly all actives have a fitted effect of over 45% in size; luciferase light after 4 h
SARS PLP yeast – SARS-CoV PLP inhibition in yeast; AID 485353; Potency, µM (series often up to 32.9 µM), for inactives: top-dose activity, positive = growth rescue; 330,000 tested, 0.19% active; S. cerevisiae expressing SARS-CoV PLpro, growth rescue; control for the full effect not named in the record; active means well fitted rising curve with a large enough effect; inconclusive means small, poorly fitted or top-dose-only effect; inactive means no such curve, though single readings can be large or run the other way; also: 0% is about no effect; nearly all actives have a fitted effect of over 55% in size; growth read by luminescence after 48 h
Cruzain Triton – cruzain (T. cruzi) inhibition with detergent; P25779; purified cruzain, Z-FR-AMC fluorescence, 0.01% Triton; 200,000 tested, 0.43% active; Potency, µM, inactives show max response, negative = inhibition, usual class: inhibitors;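 also: plate controls were neutral wells for no effect and buffer without enzyme for full effect; nearly all actives have a fitted effect of over 40% in size; top concentration of the series not given in the record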
Target sequence (P25779 123-467 limits assumed): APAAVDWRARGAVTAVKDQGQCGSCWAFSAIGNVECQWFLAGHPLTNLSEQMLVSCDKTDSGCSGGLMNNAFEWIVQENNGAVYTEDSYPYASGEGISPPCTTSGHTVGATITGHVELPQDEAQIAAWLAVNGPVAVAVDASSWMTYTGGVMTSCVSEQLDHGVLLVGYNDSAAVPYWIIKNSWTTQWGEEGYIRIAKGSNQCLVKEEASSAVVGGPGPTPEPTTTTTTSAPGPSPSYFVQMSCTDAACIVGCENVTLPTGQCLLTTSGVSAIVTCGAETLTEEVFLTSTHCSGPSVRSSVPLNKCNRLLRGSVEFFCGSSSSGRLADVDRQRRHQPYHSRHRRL
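Read-out: AMC fluorescence (360 nm excitation, 450 nm emission), four reads over 2 min, first-to-third difference used. Conditions: cruzain 1.5 nM, Z-FR-AMC 2 uM, pH 5.5 acetate, 5 mM DTT, 0.01% Triton X-100.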
MARV entry inh – inhibitors of Marburg virus binding or cell entry. 300,000 tested, 1.8% active. Marburg virus pseudotyped entry inhibition, cell reporter; control for the full effect not named in the record; about a third of the inactives were read at about 46 µM. Potency, µM (titrated, usually from 37.8 µM), without a hit: at the highest dose activity change, negative = inhibition, hits mostly inhibitors. AID 540276; active = well fitted inhibition curve with a large enough effect; inconclusive = small, poorly fitted or top-dose-only effect, or effect the other way; inactive = flat fitted curve, though single readings scatter; tested in HEK293 cells; about a fifth of its hits are not listed in these tables; also: % is scaled to controls: 0 for no effect and ±100 for the full control effect; luciferase read-out
Cruzain inh noDet – cruzain (T. cruzi) inhibition without detergent; P25779; purified cruzain, Z-FR-AMC fluorescence, no detergent; Potency, µM, for inactives: max response, negative = inhibition, hits mostly inhibitors; 200,000 tested, 2.3% active; AID 1476;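 also: plate controls were enzyme without inhibitor for no effect and buffer without enzyme for full effect; nearly all actives have a fitted effect of over 40% in size; top concentration of the series not given in the record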
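Purified cruzain at 1.5 nM, pre-incubated 15 min with compound at room temperature in 100 mM sodium acetate pH 5.5, 5 mM DTT, 0.00005% Triton X-100. Reaction started with 2 uM Z-FR-AMC; AMC fluorescence increase over 60 s gives rate.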
An asterisk follows results filed as active; ? = inconclusive; . = not tested or not shown; & = joins results of further samples; [ ] = dose if it differs, or a comment. Unless noted, calls follow the shape of the dose curve; as a rule, active = well fitted curve in the direction sought with a large enough effect; inconclusive = small, poorly fitted or top-dose-only effect, or another doubt; inactive = no such curve, though single readings can be large; an effect the other way counts as inactive or inconclusive. Potency is read from the fitted curve at half-maximal effect.

Value order – LASV entry inh, NS1 inh, RE007 growth inh, StopGo reporter, SARS PLP yeast, Cruzain Triton, MARV entry inh, Cruzain inh noDet
Clc1ccc(/C=N/NC(=Nc2ccccc2)c2ccccn2)c(Cl)c1
    2%, -52%, -6%, 13%, 0%, -1.9%, -9%, 5%
CC1CN(C(=O)c2cc3cc(Cl)ccc3[nH]2)CC(C)O1 (centres undefined)
    ., -1%, 1%, 37%[activator], -3%, ., ., .
CCN(C(=O)COC(=O)c1c(NC(C)=O)sc(C)c1C)C1CCS(=O)(=O)C1 (centres undefined)
    -15%, -11%, 1%, -11%, 12%, -0.5%, 24%, 3%
Cc1nc(NCCc2ccccc2F)c(C#N)c(C)c1[N+](=O)[O-]
    1%, -3%, 0%, ?, 4%, -7.3%, ?, -2%
O=C(O)c1cnc(-c2ccccc2)nc1Sc1cccc(Cl)c1
    12%, -13%, -2%, -5%, -10%, -19%, 0%, ?
O=C(CN1C(=O)CC(c2ccco2)Sc2ccccc21)Nc1ccc(OC(F)(F)F)cc1 (centres undefined)
    ., ., ., -8%, ., -8.8%, 18%[46.1 µM], -13%
Cc1ccc(CNC(=O)COC(=O)c2ccc(Br)cc2)cc1
    1%, 9%, 17%, -15%, 9%, 4.9%, -4%, ?
COC(=O)Cc1nc2c(N)nc(N)nc2[nH]c1=O
    -1%[46.1 µM], ., 26%, -6%, ., ., -8%[46.1 µM], .
CCOc1ccccc1C1SCC(=O)Nc2c1c(=O)[nH]n2C(CC)CC (centres undefined)
    6%, -7%, 28%, -24%, -18%, -0.7%, -3%, 1%
CCOc1ccccc1CN1CCNC(=O)C1CC(=O)NCc1cc(C)n(C)n1 (centres undefined)
    -7%[46.1 µM], 4%, -10%, 1%, 0%, ., ?, .
CCN(CCO)Cc1csc2ccc(Cl)cc12
    1%, -5%, -1%, -9%, 4%, -4.2%, ?, -22%
CNc1nc(OCCNC(=O)Nc2ccccc2)nc(N2CCOCC2)n1
    10%, -7%, 3%, -12%, 9%, 5.9%, -3%, 4%
O=C(COC(=O)c1cccnc1Cl)c1cccc(Cl)c1
    12%, -4%, 6%[3.69 µM], 39%[activator], 2%, -1.8%, 2%, 3%
CCCc1cc(C(=O)N2CCC(N3CCC(C(=O)NC(C)C)CC3)CC2)n(C)n1
    26%[46.1 µM], 1%, -2%, -9%, 0%, ., ?, .
O=C(Nc1nc2cc3c(cc2s1)OCCO3)c1ccco1
    0.79µM*, -28%, ?, ?, -13%, ., 0.79µM*, .
Cc1cc(NCc2ccccn2)n2nc(C)c(-c3ccccc3)c2n1
    ?, -35%, -14%, -7%, -3%, ., 10µM*, .
CC(C)(C)c1ccc(-c2nnc(-c3ccccc3NC(=O)c3cccc(C(F)(F)F)c3)o2)cc1
    5%[46.1 µM], ., ., -9%, ., 0.9%, -4%[46.1 µM], -2%
Cn1c2ccccc2c(=O)c2cc(C#CC3(O)CCCCC3)ccc21
    ., 7%, 4%, 25µM*, 4%, ., ., .
CCn1c(-c2c(Cl)c(C)nn2C)n[nH]c1=S
    -1%, 19%, 16%, -14%, -17%, -0.3%, 18%, 12%
N#Cc1ccc(C(=O)Nc2ccc3ccccc3c2)cc1
    4µM*, -1%, 8%, 30%, -1%, ., ?, .
CCOC(=O)c1cc(-c2nnc(-c3ccc(Oc4ccccc4)cc3)o2)c(C)nc1C
    11%, -39%, 4%, -21%, -8%, -5.8%, -7%&-7%, -1%
CC1CC1C(=O)Nc1cc(S(=O)(=O)N2CCOCC2)ccc1N1CCCC1 (centres undefined)
    -4%, ., -13%, -7%, 0%, ., -1%[46.1 µM], .
Cc1ccc(SCC(=O)c2ccc[nH]2)cc1
    -11%, ., -14%, 11%, 1%, ., ?, .
Clc1ccc(CSCCc2ccncc2)cc1
    0%, -139%, 21%, ?, -30%, 0.5%, -3%, 1%
COc1ccc(-c2cnnc(N/N=C/C(C)=C/c3ccccc3)n2)cc1
    ., -2%, ., ., -10%, -3.7%, 0%, 10µM*
NC(=O)N1CCc2ccccc21
    ., ., 6%, 6%, -3%, ., 5%[46.1 µM], .
CCOC(=O)c1ccccc1NC(=O)c1ccccc1N(C)S(C)(=O)=O
    0%, -11%, 0%, -26%, ., -3.4%, 1%, -11%
CCCCC(=O)Nc1ccc(C(=O)c2ccccc2)cc1
    17%[46.1 µM], -6%, -1%, 22%, -2%, ., ?, .
Cc1nnc(SCC(=O)Nc2ccc(F)cc2)n(N)c1=O
    ., 5%, 0%, ?, 1%, ., ., .
CCOC(=O)c1[nH]c(C)c(C(=O)NCCc2ccc(OC)cc2)c1C
    -11%, -7%, -3%, 4%, -4%, 1.4%, 0%, -19%
COc1cc(NC(=O)Cc2cccc3ccccc23)c(C(=O)O)cc1OC
    ., -2%, 9%, -9%, 1%, ., ., .
Cn1c(O)c(/C=N/NC(=O)c2ccncc2)c(=O)[nH]c1=S
    ., 1%, 40%, -16%, 0%, ., ., .
COc1cccc(/C=C/c2nc(C#N)c(NCCc3ccc(OC)c(OC)c3)o2)c1
    10%[46.1 µM], ., ., ?, ., -11%, 0%[46.1 µM], ?
CCOC(=O)C1=C(c2ccccc2)N=C2SCC(=O)N2C1c1ccc2c(c1)OCO2 (centres undefined)
    0%, 2%, 2%, -5%, 12%, -4.4%, 18%, -3%
COC(=O)CN(c1nc(C)c(Cl)c(OC)n1)S(=O)(=O)c1ccc(C)cc1
    -14%, -50%, -2%, -24%, -8%, -3.3%, ?, 3%
COC(=O)c1[nH]c2cccc(OC)c2c1NC(=O)C(C)N1CCC(C)CC1 (centres undefined)
    11%, -1%, -4%, 1%, 11%, 0.1%, 14%, -6%
Cc1ccc(NC(=O)COC(=O)CCc2ccc(S(=O)(=O)N3CCOCC3)cc2)cc1C
    14%, ., -8%, 4%, 1%, ., 7%[46.1 µM], .
O=C(NCc1ccco1)C(c1ccncc1)N(CCC1=CCCCC1)C(=O)Cn1nnc2ccccc21 (centres undefined)
    -19%, -5%, -6%, 15%, 3%, -1.8%, ?, 3%
Cc1cc(Br)ccc1NC(=O)CN(C)C(=O)CN1C(=O)NC2(CCCC2)C1=O
    7%, ., -12%, -2%, -1%, ., -2%, .
COc1cc(C(=O)OCC(=O)c2cc(C)n(CC3CCCO3)c2C)ccc1OCC(=O)N1CCOCC1 (centres undefined)
    3%, ., 8%, 3%, ., ., 14%[46.1 µM], .
CCCC(=O)OCc1cnc(C)c2oc(=O)c(C(=O)Nc3ccccc3)cc12
    11%[46.1 µM], ., ., -11%, ., 0.7%, ., -11%
Cc1cccc(COc2ccc(/C(O)=C3\C(=O)C(=O)N(CCN(C)C)C3c3ccncc3)cc2)c1 (centres undefined)
    11%, -7%, 3%, 38%[activator], -5%, -4.1%, 8%, -9%
CCOc1ccc(C(=O)NCC(=O)N2CCN(C/C=C/c3ccccc3)CC2)cc1OCC
    -17%, ., -21%, -26%, 10%, ., ?, .
COc1ccc(CCn2c(SCC(=O)Nc3cc(C)on3)nc3ccsc3c2=O)cc1OC
    -43%, ?, -7%, -10%, -2%, -4.7%, ?, 4%
CC(C)CN1CCC(=O)N(CCSc2ccc(Br)cc2)CC1
    ., -4%, -5%, 16%, -4%, ., ., .
CCOC(=O)N1CCN(c2ncnc3c2cnn3-c2ccc(Cl)cc2)CC1
    ., 2%, ., ., 6%, 6.4%, -3%, 4%
CC/C(=N/NC(=O)CCC(=O)Nc1ccccc1OC)c1ccccc1
    31%, 13%, 10%, -6%, 23%, 12%, ?, -5%
Cc1cc(C)n(C2CC(=O)N(c3ccccc3)C2=O)n1 (centres undefined)
    28%, 5%, 9%, -23%, -12%, 1.6%, -9%, -5%
Cc1cccc(C)c1NC(=O)CNC(=O)c1cncc(Br)c1
    3%, -2%, -15%, 17%, 0%, ., 18%, .
Cc1nn(C)c(C)c1S(=O)(=O)N1CCC(C(=O)NC(C)c2ccccc2)CC1 (centres undefined)
    -15%, -14%, -12%, -17%, -26%, 0.4%, 10%, 9%
CCOC(=O)c1cc(C#N)c(SCC(=O)Nc2ccc(C(C)=O)cc2)[nH]c1=O
    14%, 3%, 6%, -14%, 1%, ., 8%[46.1 µM], .
Cc1n[nH]c(C)c1CN(C)C(=O)C1CCC(=O)N(CC2CCCCC2)C1 (centres undefined)
    14%, 7%, 10%, -7%, 4%, ., -10%, .
CC12CC[C@H]3[C@@H](CCC4(O)C[C@H](O)CCC34/C=N/NC(=O)c3ccccc3O)C1(O)CCC2C1=CC(=O)OC1 (some centres undefined)
    ?, -8%, -10%, -20%, -1%, ., ?, .
CNC(=O)CSc1nc(-c2ccccc2)c(-c2ccccc2)[nH]1
    0%, -20%, 6%, -21%, -6%, 0.5%, 9%, -6%
N/C(=N\NS(=O)(=O)c1ccc(Cl)cc1)c1ccccn1
    5%[46.1 µM], ., 8%, 10%, ., ., ?, .
COc1ccc(-c2csc(NC(=O)CN3C(=O)NC4(CCCC4)C3=O)n2)cc1OC
    2%, ., 2%, -20%, -6%, ., 10%, .
COc1cc(/C=N/NC(=O)c2cccc(S(=O)(=O)N3CCCCC3)c2)cc(Br)c1O
    -3%, ., 19%, -16%, -1%, ., ?, .
O=S(=O)(NC1CCN(Cc2ccccc2)CC1)c1cccc2cccnc12
    -4%, ?, -14%, 17%, -4%, 1.5%, ?, 7%
Cc1ccc(S(=O)(=O)NCC2CCC(C(=O)NCc3ccco3)CC2)cc1 (centres undefined)
    0%, 5%, -15%, 10%, 0%, -1.1%, 4%, 2%
CCCC(=O)OCc1cnc(C)c2oc(=O)c(C(=O)Nc3ccc(F)cc3C)cc12
    22%[46.1 µM], ., ., -9%, ., -0.4%, ., -2%
O=C(c1ccc(=O)oc1)N1CCN(C(c2ccccc2)c2ccccc2)CC1
    ?, 11%, -9%, -5%, -7%, -3.1%, ?, -24%
CCc1ccc(NC(=O)C/C(C)=N/NC(=O)COc2ccc(C)cc2Br)cc1
    5%, 7%, 6%, 9%, -2%, ., -17%[46.1 µM], .
COc1ccc(CN(C)C(=O)c2ccc(COc3ccccc3)cc2)c(OC)c1
    ?, -27%, -9%, -7%, -4%, ., ?, .
